# From PubChem BioAssay
# WNV protease inh: inhibitors of WNV NS2B-NS3 protease, primary screen, biochemical, fluorogenic substrate | Genome polyprotein (West Nile virus), P06935 | fluorogenic substrate Ex360/Em465; active compounds read low | z-score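 (tested at a level between 10 and 100 µM)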 | 0.18% of 65,000 active | AID 577, 2007;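 active = z-score at -3 or under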;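 also: score is relative to mean and spread of the compound wells of a plate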
# Target sequence (P06935 1371-1501 limits assumed): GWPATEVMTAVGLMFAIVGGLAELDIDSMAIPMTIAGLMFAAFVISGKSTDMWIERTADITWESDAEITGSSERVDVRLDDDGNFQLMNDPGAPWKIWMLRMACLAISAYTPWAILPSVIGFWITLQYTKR
# Target sequence (P06935 1502-1679 limits assumed): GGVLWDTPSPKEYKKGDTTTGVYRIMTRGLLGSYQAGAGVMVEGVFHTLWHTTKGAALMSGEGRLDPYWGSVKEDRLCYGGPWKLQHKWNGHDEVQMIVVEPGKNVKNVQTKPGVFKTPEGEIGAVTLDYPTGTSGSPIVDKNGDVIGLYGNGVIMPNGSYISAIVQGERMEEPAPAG
# MT1-MMP reporter: inhibitors of MT1-MMP promoter transcription, cell-based, luciferase reporter, luminescence (AID 618); MT1-MMP promoter luciferase reporter cells, luminescence; calls from a first round at 10 µM; hits with a dose series show EC50 in µM; 0.62% of 87,000 active;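 active = over half of the reporter light lost at 10 µM or EC50 under 50 µM; inactive = the rest and hits that failed the dose series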;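 also: actives suppress MT1-MMP promoter-driven transcription so potencies describe inhibitors; HT1080 fibrosarcoma cells; overnight exposure; toxic or luciferase-blocking compounds were not removed from the actives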
# Hsc70 ATP site: Hsc70 inhibitors, probe displacement, primary screen, biochemical, fluorescence polarization (AID 568); Hsc70 fluorescence polarization, probe displacement; higher % means a stronger effect; strong numbers were not always called active; 83,000 tested, under 10 active; one-dose displacement, % at 20 µM; IC50 in µM for titrated hits;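 active = displacement above 50% without optical interference and an IC50 on retest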;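 also: ATPase domain with a fluorescein-tagged ATP probe; 0% = vehicle and 100% = excess ADP; read after one hour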
# * = called active by the depositor; i = inactive; . = not tested or not shown.
SMILES,WNV protease inh,MT1-MMP reporter,Hsc70 ATP site
CCOc1ccc(C2SCC(=O)N2c2c(C)n(C)n(-c3ccccc3)c2=O)cc1 (centres undefined),-0.69,i,2.3%
C=CCNc1ncnc2c1[nH]c1ccccc12,0.21,i,-7.5%
O=C(CSc1ncn(-c2ccccc2)n1)NCc1ccccc1,-0.00631,i,-3.8%
Cc1ccc(NC(=O)C(C)Sc2nc(=O)cc(N)n2-c2ccccc2)cc1 (centres undefined),.,i,-4.5%
O=C(Nc1nc2n(n1)C(c1ccccc1)C=C(c1ccccc1)N2)c1ccco1 (centres undefined),-0.95,i,-3.5%
O=C(CN1C(=O)C2CC=C(Cl)CC2C1=O)Nc1ccc(C(=O)O)cc1 (centres undefined),0.37,i,8.5%
CCOC(=O)c1nnn(-c2nonc2-n2cccc2)c1CN1CCC(C(=O)OCC)CC1,.,i,-1.2%
Cc1ccc(C#N)c(SCc2cc3c(cc2Cl)OCO3)n1,-0.67,i,1.7%
CC(=O)c1ccc(N2CCN(C(=O)c3ccc(Br)cc3)CC2)c(F)c1,-0.7,i,3.4%
OC(C#CCN1CCCC1)c1ccccc1 (centres undefined),1.32,i,73.5%
O=c1c2c([nH]c3ccccc13)C(=C1CCCC1)CC2,-0.34,i,1.9%
CNc1nc(C)c(C(=O)OCc2ccccc2)s1,0.54,i,0.8%
O=C(CS(=O)(=O)Cc1ccccc1)N1CCN(c2cccc(C(F)(F)F)c2)CC1,1.55,i,-7.1%
O=c1[nH]c(Cc2ccccc2)nc2c1oc1ccccc12,-0.62,i,-6.2%
O=C(CC12CC3CC(CC(C3)C1)C2)N1CCCOC1,-1.52,i,0.0%
COc1ccccc1Cn1c(=O)c2ccccc2n2c(Sc3ncnc4sccc34)nnc12,-0.38,i,-30.9%
Cc1cc(Cl)c(S(=O)(=O)N(C)C)cc1OCC(N)=O,.,i,1.6%
CS(=O)(=O)N1CCC(C(=O)Nc2ccc3c(c2)OCCO3)CC1,.,i,-4.7%
CCCc1nnc(NC(=O)Nc2ccccc2OC)s1,0.41,i,-7.3%
CCc1c(O)nc(SCC(=O)N2CCCCC2)n(-c2ccccc2C)c1=O,-0.63,i,0.4%

# Continued, overlapping the part above by 4 compounds.
SMILES,WNV protease inh,MT1-MMP reporter,Hsc70 ATP site
Cc1cc(Cl)c(S(=O)(=O)N(C)C)cc1OCC(N)=O,.,i,1.6%
CS(=O)(=O)N1CCC(C(=O)Nc2ccc3c(c2)OCCO3)CC1,.,i,-4.7%
CCCc1nnc(NC(=O)Nc2ccccc2OC)s1,0.41,i,-7.3%
CCc1c(O)nc(SCC(=O)N2CCCCC2)n(-c2ccccc2C)c1=O,-0.63,i,0.4%
CC(C)Cc1c(O)nc(SCC(=O)Nc2ccc3c(c2)CCC3)[nH]c1=O,.,i,-2.6%
O=C(CSCC(=O)N1CCCCC1)OCC(=O)c1c[nH]c2ccccc12,-0.34,i,-3.8%
COc1cccc(-c2nc(CS(=O)(=O)CC(=O)N3CCN(C)CC3)c(C)o2)c1,-0.08,i,2.0%
COCCn1c(SCc2nnc(-c3ccccc3)o2)nc2sc3c(c2c1=O)CCC3,0.02,i,0.4%
N#CCCSCc1ccc2oc(C(=O)O)cc2c1,-2.06,i,-2.4%
CC(=O)c1ccc(N2CCN(C(=O)C3CCN(S(=O)(=O)Cc4ccccc4)CC3)CC2)cc1,-0.67,i,-2.2%
CCCc1[nH]nc2c1C1(C(=O)N(C(C)C)c3ccccc31)C(C#N)=C(N)O2 (centres undefined),-0.69,i,4.4%
N#CC1=C(SCC(=O)NC2CCCCC2)NC(=O)CC1c1ccco1 (centres undefined),0.24,i,-5.7%
CCN(CC)C(=O)Oc1ccc(NC(C)=O)cc1,-0.34,i,0.1%
Cc1ccc(-n2ncc3c(N4CCN(c5ccc(F)cc5)CC4)ncnc32)c(C)c1,-0.27,i,-1.1%
O=C(Cn1cnc2c(nnn2Cc2ccc(F)cc2)c1=O)NCc1ccco1,1.44,i,-1.2%
Cc1ccc2nc(/C(C#N)=N/O)[nH]c2c1,0.08,i,-16.9%
Oc1c(C(c2ccccc2)N2CCN(Cc3ccccc3)CC2)sc2ncnn12 (centres undefined),-0.18,i,3.1%
CN=C(NC#N)SCC(=O)c1ccc(Cl)cc1Cl,0.83,i,-1.6%
Cc1cc(C)nc(N2CCN(c3nc(C)nc4c3oc3ccccc34)CC2)n1,.,i,-4.1%
Cc1cc(C)cc(-n2c(C)cc(C(=O)CSc3nnnn3C)c2C)c1,.,i,7.1%
O=C(C1CC1)N1CCN=C1SCc1cccc(F)c1,0.42,i,4.3%
Cn1c(=O)[nH]c2cc(Cl)cnc21,-0.81,i,62.1%
Cc1cccn2c(=O)c3cc(C(=O)NC4CCS(=O)(=O)C4)sc3nc12 (centres undefined),-0.75,i,-2.9%
Cc1cc(C(=O)OCC(=O)Nc2cc(C(F)(F)F)ccc2N2CCOCC2)c(C)o1,0.56,i,5.7%

# Four compounds out of the list, arranged by molar mass, lowest first.
SMILES,WNV protease inh,MT1-MMP reporter,Hsc70 ATP site
C=CCNc1ncnc2c1[nH]c1ccccc12,0.21,i,-7.5%
CCCc1nnc(NC(=O)Nc2ccccc2OC)s1,0.41,i,-7.3%
O=C(Cn1cnc2c(nnn2Cc2ccc(F)cc2)c1=O)NCc1ccco1,1.44,i,-1.2%
CCOC(=O)c1nnn(-c2nonc2-n2cccc2)c1CN1CCC(C(=O)OCC)CC1,.,i,-1.2%

# (list continues)
SMILES,WNV protease inh,MT1-MMP reporter,Hsc70 ATP site
Cc1cc(C)c(S(=O)(=O)N(C)CC(=O)N2CCCCC2)c(C)c1,0.69,i,2.8%
Nc1nnc(N2CCc3ccccc32)s1,-1.42,i,2.0%
Cc1cc(NC(=O)c2cncc(Br)c2)n(-c2ccccn2)n1,1.02,i,2.4%
CCOC(=O)Cc1csc(NC(=O)CSc2nnc(-c3cccnc3)n2Cc2ccco2)n1,.,i,-1.3%
Cc1cc(=O)c2cc(Br)ccc2[nH]1,.,i,-0.6%
Cn1c(=O)c2c(nc(NCCCN3CCOCC3)n2Cc2cccc(Cl)c2)n(C)c1=O,-1.53,i,-1.2%
CCc1c(C)c2c(C)nn(-c3ccccc3)c2oc1=O,.,i,1.3%
CCCCOC(=O)C1[C@H]2C(=O)N(Cc3cccs3)C[C@]23C=C[C@H]1O3 (some centres undefined),0.98,i,1.9%
CCC(C)C(NC(=O)C1CCC(C)CC1)C(=O)NC(C(=O)OC)C(C)C (centres undefined),0.74,i,10.8%
CC1Cc2nc(SCC(=O)N3CCc4ccccc43)n(C)c(=O)c2S1 (centres undefined),-0.12,i,8.4%
COc1cc(/C=C2\SC(=S)N(Nc3ncc(C(F)(F)F)cc3Cl)C2=O)cc(OC)c1OC,.,i,-5.1%
Cn1c(=O)cc(OCCCC(=O)NCc2ccco2)c2ccccc21,-0.31,i,-0.5%
FC(F)(F)c1ccc(-n2ccnc2)nc1,0.53,i,-0.5%
N#Cc1c(N)nc2c(c1N)CC(=O)N2c1ccccc1-c1ccccc1,-0.78,i,5.3%
c1ccc(Cn2c(-c3cccs3)nc3nc4ccccc4nc32)cc1,-1.32,i,-11.1%
CN(Cc1ccccc1)Cc1nc2c([nH]1)c(=O)n(C)c(=O)n2C,-1.31,i,-1.7%
Cn1c(NCCCO)nc2c1c(=O)n(Cc1ccccc1F)c(=O)n2C,0.88,i,-5.9%
CCCCCC(=O)N1CCN(CCN=CC2=C(O)CC(c3ccc(OC)cc3)CC2=O)CC1 (centres undefined),-0.92,i,-3.8%
Cc1ccc(C2CC(c3cccc(Br)c3)n3nc(N)nc3N2)cc1 (centres undefined),-0.7,i,-3.1%
O=C(CN1CCC(O)(c2ccc3c(c2)OCO3)CC1)N1CCOCC1,1.38,i,-2.3%
CC1(C)Cc2c(sc(NC(=O)C(C)(C)C)c2C#N)C(C)(C)N1,.,i,-3.4%
CC1(C)Oc2ccc(C(=O)N3CCCC3)cc2N(CC(=O)NCc2ccccc2)C1=O,0.36,i,-3.7%
Cc1ccc(CS(=O)(=O)Cc2ccc(C(=O)NCC3CCCO3)o2)cc1 (centres undefined),-0.05,i,-8.8%
CC1(C)Cc2c(c(N3CCCC3)nc3sc4c(N5CCN(CCO)CC5)ncnc4c23)CO1,-0.56,i,2.8%
CCC(C)NC(=O)C1c2cc(OC)c(OC)cc2C(=O)N(C)C1c1ccc(OC)cc1 (centres undefined),0.31,i,4.5%
Cc1ccc(NC(=O)c2cnccn2)c(OC(F)F)c1,-0.5,i,-0.1%
CCc1noc(C)c1C(=O)N1CC(C)OC(C)C1 (centres undefined),-0.2,i,-2.2%
N=c1c2c3c(sc2ncn1CCCO)CCCC3,.,i,1.7%
O=C(Nc1ccccc1C(F)(F)F)N1CCC(N2CCCCC2)CC1,-0.53,i,1.5%
CCN=C1SC(C(=O)Nc2ccccc2)CC(=O)N1CC (centres undefined),.,i,1.3%
CC(C)OCCCN1CN(S(=O)(=O)c2ccc(Cl)cc2)c2nc3ccccc3nc21,.,i,-3.2%
COc1ccc(C(=O)CSc2nnc(CNc3ccc(C)cc3C)n2Cc2ccco2)cc1,0.1,i,-9.2%
CCOc1cc(CO)c(Br)cc1OCC(=O)O,.,i,1.5%
O=C(CN1CCC(n2nnc3cc(F)ccc32)CC1)N1CCCc2ccccc21,-1.04,i,2.5%
CC(C)CCNC(=O)NC(=O)COC(=O)c1cc(S(=O)(=O)N2CCOCC2)ccc1N1CCCCC1,.,i,-4.2%
COc1ccc(Cc2c(O)nc(SCC(=O)N3CCCCCC3)[nH]c2=O)cc1,.,i,6.9%
O=C(O)CCC(=O)N1CCc2cc(S(=O)(=O)N3CC=C(c4ccccc4)CC3)ccc21,-1.91,i,-3.1%
CCOC(=O)/C(=N\NC(=O)c1ccccc1)c1ccccc1,.,i,-1.3%
O=C(Nc1ccc(-n2nncc2-c2ccco2)cc1)c1cccc(F)c1,-2.04,i,-4.3%
Cc1csc(SCC(=O)N2CCN(S(=O)(=O)c3ccc(Cl)cc3)CC2)n1,1.19,i,4.7%
COc1ccc(Cl)cc1NC(=O)CN(c1ccccc1)S(=O)(=O)N(C)C,0.86,i,2.1%
COC(=O)c1ccc(OCC(O)Cn2nnc3ccccc32)cc1 (centres undefined),-1.13,i,3.6%
CC(=O)c1cccc(NC(=O)Cn2cc3c(n2)CCCC3)c1,0.74,i,2.6%
Cc1nnc(NC(=O)CSc2nnc(Cc3cccn3C)n2CCc2ccccc2)s1,-0.97,i,2.7%
O=C(CCc1nc2ccccc2[nH]1)Nc1ccc2c(c1)OCO2,0.69,i,-0.9%
CCOC(=O)C1CCN(C(=O)CNS(=O)(=O)c2ccc(Br)s2)CC1,-0.73,i,1.6%
CC1CCc2c(C(=O)Oc3cccc(-n4cnnn4)c3)csc2C1 (centres undefined),-0.05,i,-6.2%
C=CCn1c(N)c(C(=O)Nc2ccc(C)c(C)c2)c2nc3ccccc3nc21,.,i,-5.9%
CCC(C)[C@H](NC(=O)NCC1CCCO1)C(=O)OC (some centres undefined),-2.6,i,2.4%
O=C(O)C1CC(c2ccccc2)=NO1 (centres undefined),.,i,7.0%
# Other results:
SMILES,WNV protease inh,MT1-MMP reporter,Hsc70 ATP site
CCN(CC)CCCN1C(=O)C(=O)/C(=C(/O)c2ccc3c(c2)OCCO3)C1c1ccco1 (centres undefined),-0.34,i,0.7%
Cc1cc(C)n(-c2nc(Nc3ccccc3C(F)(F)F)nc(-n3nc(C)cc3C)n2)n1,.,i,4.5%
CCOC(=O)N1CCC(NC(=O)Cn2c3ccccc3c3cn[nH]c(=O)c32)CC1,-0.19,i,0.0%
Cc1cc(C)n(-c2nnc(C)n2NC(=O)c2cccc(Cl)c2)n1,.,i,0.1%
CN1CC(=O)N(CC(=O)Nc2ccc(F)cc2)c2ccccc2C1=O,-0.33,i,2.8%
CC1CCN(C(=O)CSc2nnc(CSc3ncccn3)n2C)CC1,-1.14,i,-3.7%
Cc1ccc(NC(=O)CSc2n[nH]c(-c3ccncc3)n2)cc1C,0.92,i,3.2%
CCCc1ccc(OCc2ccc(C(=O)N3CCN(c4ccccn4)CC3)o2)c(OC)c1,0.54,i,1.4%
Cc1ccc(N2C(=O)CC(Sc3ncn[nH]3)C2=O)cc1 (centres undefined),.,i,3.7%
COc1ccc(N2CCSC2C(=O)NN)cc1 (centres undefined),.,i,-5.2%
Cc1ccc(C(=O)N/C(=C/c2ccco2)C(=O)Nc2cccc(C)c2)cc1,.,i,6.1%
Cc1ccc2c(c1)c(C)c(C)n2CC(O)CN1CCOCC1 (centres undefined),.,i,3.6%
CC(=O)C1C(c2ccc(F)c(F)c2)NC(=O)NC1(O)C(F)(F)F (centres undefined),-0.92,i,3.1%
CCS(=O)(=O)N1CCN(S(=O)(=O)c2ccccc2)CC1,.,i,4.0%
O=C(CCSc1ccccc1)NC1CCCC1,-0.46,i,5.3%
O=C(CCCc1nc(-c2ccc(Cl)cc2)no1)Nc1cccnc1,-0.87,i,-10.5%
O=C(Cn1cc2c(n1)CCCC2)NCCCN1CCN(c2ccccc2F)CC1,0.57,i,3.8%
CC(=O)Nc1nc2ccccc2n1CCN1CCOCC1,1.39,i,-1.6%
CCOC(=O)Cn1nnnc1C(CC)N(Cc1cccs1)Cc1cc2ccc(OC)cc2[nH]c1=O (centres undefined),0.53,i,-0.7%
C=CCn1c(CNC(=O)c2ccccc2C)nnc1SCC(=O)NC1CCCC1,-0.43,i,-4.2%
